# RecA splice inh – Mtb RecA intein splicing inhibitors, primary screen, biochemical, fluorescence, HTS. Protein RecA (Mycobacterium tuberculosis (strain ATCC 25618 / H37Rv)), P9WHJ3. cell-free RecA intein splicing. inhibition, %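 (about 9 µM by stock and volumes)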. 0.75% of 290,000 active. AID 2221, 2009; in the data active means inhibition above about 30%; inconclusive means no clear call, values can overlap the other calls;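 further: 0% = vehicle wells and 100% = reference inhibitor control wells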
# Target sequence (P9WHJ3 whole entry, looked up, canonical isoform): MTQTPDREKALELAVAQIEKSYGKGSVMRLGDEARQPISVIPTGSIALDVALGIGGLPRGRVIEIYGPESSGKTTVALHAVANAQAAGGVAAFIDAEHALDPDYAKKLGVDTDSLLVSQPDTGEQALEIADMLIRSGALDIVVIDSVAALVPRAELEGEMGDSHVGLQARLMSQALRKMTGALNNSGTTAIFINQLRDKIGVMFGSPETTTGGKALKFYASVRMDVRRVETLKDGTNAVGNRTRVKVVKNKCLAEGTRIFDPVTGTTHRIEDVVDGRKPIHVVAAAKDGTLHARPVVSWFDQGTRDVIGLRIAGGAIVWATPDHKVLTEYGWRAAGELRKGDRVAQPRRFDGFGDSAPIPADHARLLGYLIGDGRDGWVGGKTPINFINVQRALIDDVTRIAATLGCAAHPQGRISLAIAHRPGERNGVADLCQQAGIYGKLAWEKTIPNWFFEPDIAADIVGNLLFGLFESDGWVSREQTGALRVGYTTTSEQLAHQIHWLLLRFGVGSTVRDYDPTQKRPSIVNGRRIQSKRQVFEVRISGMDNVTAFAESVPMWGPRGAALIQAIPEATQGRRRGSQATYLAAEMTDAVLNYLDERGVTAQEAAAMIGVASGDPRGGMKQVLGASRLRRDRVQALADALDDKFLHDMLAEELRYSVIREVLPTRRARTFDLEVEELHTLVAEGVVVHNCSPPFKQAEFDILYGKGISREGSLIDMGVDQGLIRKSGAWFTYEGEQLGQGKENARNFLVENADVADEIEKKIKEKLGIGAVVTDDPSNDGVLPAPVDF
# Mtb H37Rv – M. tuberculosis H37Rv growth inhibitors, H37Rv strain (AID 1626). 0.95% of 220,000 active. inhibition, % at 10 µM; hits with a dose series show IC50 in µM. M. tuberculosis H37Rv growth inhibition; higher % means a stronger effect;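 active means confirmed in a dose series; inconclusive means inhibition above 80% but not taken into the dose series; inactive means below 80% or under 30% at every dose of the series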;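 further: bacteria incubated seven days before Alamar blue readout; 0% = bacteria only wells and 100% = bacteria with antibiotic wells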
# Mtb bLac sens – beta-lactam sensitization of Mtb H37Rv, H37Rv | inhibition, % at 25 µM | 0.27% of 330,000 active | M. tuberculosis H37Rv growth with meropenem, percent inhibition; hits of this screen are not shown here;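 active means about 74% or more and at least 40 points above the plate without the antibiotic, then above 30% in a dose series; inconclusive means first-round hits that could not be retested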;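 further: growth measured after seven days incubation then overnight dye step; 0% = bacteria only wells and 100% = bacteria with antibiotic; twin plates without the antibiotic show which effects depend on it; some results filed as inactive read as strong as hits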
# Arbovirus anti – antivirals against arbovirus infection, primary screen, cell-based, full library, 10K replicate subset | 0.37% of 200,000 active | arbovirus infection cell-based antiviral screen | inhibition, % at 10 µM;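 active means inhibition from about 30%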;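 further: bluetongue infection of BSR cells; cell survival read as ATP light after 72 h; 0% = infected wells without compound and 100% = uninfected wells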
# YopH PTP inh – YopH tyrosine phosphatase inhibitors, primary screen, biochemical, fluorescence Ex485/Em525. inhibition, %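 (about 10 µM by stock and volumes)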. 0.16% of 140,000 active. AID 898, 2007;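 active means inhibition of 50% or more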;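 further: controls were vehicle for no effect and minimum signal wells for full effect; inactives centre near -20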
# Starred values were filed as active, the others as inactive; ? = inconclusive; nt = no result given.
SMILES,RecA splice inh,Mtb H37Rv,Mtb bLac sens,Arbovirus anti,YopH PTP inh
O=c1c(-c2ccc(Cl)cc2)[n+]([O-])c2ccccc2n1OCc1nc2ccccc2[nH]1,-4.2,-4%,-4,nt,nt
O=C(CCSCc1ccccc1Cl)NC1CCCCC1,0.9,5%,-8,20,nt
COc1ccc(CCNC2CC(=O)N(CCc3ccc(OC)c(OC)c3)C2=O)cc1 (stereo not given),-3.5,2%,-8,8,-15
COc1cccc(C2Nc3ccc4ccccc4c3C3=C2C(=O)CCC3)c1O (stereo not given),3.4,nt,4,nt,nt
CN1CCN(C(=O)c2cn(-c3ccccc3)nc2-c2cccnc2)CC1,1.4,2%,8,4,-19
CC(=O)Nc1nnc(-c2c(-c3c(Cl)cccc3Cl)noc2C)o1,0.7,-11%,-3,nt,nt
COc1ccc(-c2cc(C(=O)N/N=C/c3cccnc3)c3ccccc3n2)cc1,2.2,nt,3,nt,nt
CC(C)Cc1nc2n[nH]c(N)c2c2c1COC(C)(C)C2,2.1,0%,-8,7,9
COc1ccc(NC(=O)CN(C)C(=O)c2cccc(S(=O)(=O)N3CCN(C)CC3)c2)cc1,-1.9,nt,-9,nt,nt
CC(C)NC(=O)Cn1c(SCC(=O)N2CCCCCC2)nc2ccccc21,-0.9,-1%,-8,7,-22
CCOC(=O)C1=C(COC(=O)CNS(=O)(=O)c2ccc(C)cc2)NC(=O)NC1C (stereo not given),-1.0,nt,-13,nt,nt
COc1ccc(S(=O)(=O)NCC(c2ccco2)N2CCOCC2)cc1 (stereo not given),-1.9,nt,-19,nt,nt
O=C(COC(=O)C12CC3CC(CC(O)(C3)C1)C2)NC12CC3CC(CC(C3)C1)C2,0.9,9%,-1,5,nt
CCOC(=O)c1sc2nc(CSc3nc4ccccc4n3CC)[nH]c(=O)c2c1C,3.0,-6%,-6,7,-24
COc1ccc(CCC(=O)N/N=C(\C)c2ccc3c(c2)OCO3)cc1,-1.4,nt,92,nt,nt
Cc1ccc(N/N=C(\C#N)C(N)=S)c(C)c1,17,-6%,-1,29,-25
Cc1ccc2cc(S(=O)(=O)NCCCC(=O)O)ccc2c1,-2.3,-4%,-16,2,-40
CCSc1nnc(NC(=O)C2(C)Cc3ccccc3C(=O)O2)s1 (stereo not given),0.3,1%,-6,16,-18
CN(C)c1cc(-c2ccc([N+](=O)[O-])cc2)oc(=O)c1Cl,-3.9,-3%,-2,nt,nt
COc1ccc(C2C(C#N)=C(N)Oc3cc(N)ccc32)cc1OC (stereo not given),-13,1%,8,-25,-51
CC(C)(C)OC(=O)N1CCC(c2c(C(=O)N3CCN(C(=O)c4ccco4)CC3)cnn2-c2ccc(F)cc2)CC1,-0.4,nt,5,nt,nt
O=C(COC(=O)C1CCCC1)NCc1ccc(Cl)cc1,2.9,0%,-1,15,nt
Cc1ccc(C)c(CSc2ccc3nnc(-c4ccccn4)n3n2)c1,0.3,14%,42,8,nt
CC(C)(C)c1cc(C(=O)C[n+]2ccc(C(=O)NCCCO)cc2)cc(C(C)(C)C)c1O,-2.5,-10%,-2,nt,nt
N#CC(C(N)=O)=C1CCCCC1,-0.4,2%,9,nt,nt

# The results go on.
SMILES,RecA splice inh,Mtb H37Rv,Mtb bLac sens,Arbovirus anti,YopH PTP inh
O=C(OCC(=O)N1CCCc2ccccc21)c1ccc(S(=O)(=O)C(F)F)cc1,-5.6,nt,92,nt,nt
Nc1nc(NCCOCCO)nc(N2CCCCCC2)c1[N+](=O)[O-],1.1,nt,5,nt,nt
O=C(CN1C(=O)C2(OCCCO2)c2ccccc21)NCCc1ccccc1,0.3,-1%,2,-4,-23
COCCNC(=O)c1cc(-c2ccc(-c3ccccc3)cc2)nc2ccccc12,2.7,nt,11,nt,nt
COc1cc(NC(=O)c2oc3ccccc3c2C)ccc1NC(=O)c1ccco1,-12,nt,8,nt,nt
CCN(CC)S(=O)(=O)c1ccc(N(C)C)c(NC(=O)CC(NC(C)=O)c2ccccc2)c1 (stereo not given),-1.8,1%,-1,4,nt
COC(=O)c1ccc(SC)cn1,1.9,4%,-10,8,-38
O=C(Cn1c(CSc2ccccc2)nc2ccccc21)Nc1ccccc1,nt,1%,nt,17,-37
CC1CCCCC1NC(=S)Nc1cccc(S(=O)(=O)N(C)C)c1 (stereo not given),-1.2,1%,1,1,nt
CCOC(=O)c1ccc2c(c1)C(=O)N(C1CCCCC1)C2=O,3.1,36%,8,6,9
CCOC(=O)C1C(=O)CC(C)(O)C(C(=O)OCC)C1c1ccc([N+](=O)[O-])cc1 (stereo not given),0.5,6%,-3,nt,nt
CC1(C(=O)Nc2nnc(SCc3ccccc3)s2)Cc2ccccc2C(=O)O1 (stereo not given),0.6,-3%,-8,14,-8
Cc1nc(C)n(C(C)CNS(=O)(=O)c2ccc(Cl)cc2)n1 (stereo not given),1.0,nt,-4,nt,nt
COc1cccc(C(=O)NCC(=O)OCC(=O)Nc2cc(OC)c([N+](=O)[O-])cc2C)c1,0.8,-3%,-2,9,-43
C=CCNC(=O)[C@@H]1CSC2c3ccc(OC)c(OC)c3C(=O)N21 (stereo not given in full),-4.1,nt,-5,nt,nt
COc1ccc(CC(NC(C)=O)C(=O)NC2CCN(C(=O)c3cc(OC)c(OC)c(OC)c3)CC2)cc1 (stereo not given),0.7,nt,-4,nt,nt
COc1cc(C(c2c(C)[nH][nH]c2=O)c2c(C)[nH][nH]c2=O)cc(OC)c1OC,96*,7%,-5,-8,nt
Cc1ccccc1C(=O)N/N=C1\SCC(=O)N1Cc1ccco1,3.1,-2%,-5,2,nt
O=C(CCn1cccc(C(F)(F)F)c1=O)Nc1cccc(C(F)(F)F)c1,0.5,-10%,-2,nt,nt
O=C(c1ccco1)N1CCN(S(=O)(=O)c2ccc(S(=O)(=O)NC3CCCCC3)cc2)CC1,-0.5,-2%,3,15,-33
O=C(COC(=O)c1cncc(Br)c1)NCc1ccccc1Cl,-4.1,6%,1,15,nt
O=C(Nc1nn[nH]n1)c1cccc([N+](=O)[O-])c1,-0.5,3%,-1,-1,nt
Nc1c(NC2CCCCC2)c2ccccc2oc1=O,4.0,4%,2,-6,-21
Cc1cccnc1NC(=O)CCNC(=O)c1ccc(Cl)cc1,-1.6,nt,-13,nt,nt
COC(=O)CC1C(=O)NC(C)=C1C(=O)OC (stereo not given),0.0,0%,4,nt,nt

# Next structures
SMILES,RecA splice inh,Mtb H37Rv,Mtb bLac sens,Arbovirus anti,YopH PTP inh
COc1ccc(C(=O)NCCc2c[nH]c3ccccc23)cc1,0.3,nt,3,nt,nt
O=C(N/N=C/c1coc2ccccc2c1=O)c1cn(-c2ccccc2)nc1-c1ccc(F)cc1,0.8,3%,-4,11,-29
O=C(Nc1cccc2ccccc12)C1CCCC1,-2.4,nt,3,nt,nt
O=C1CCN(CCc2ccccc2)CCN1[C@H](COc1ccccc1)Cc1ccccc1,10,nt,45,nt,nt
O=C(Nc1ccc(Cl)cc1)C1CCN(C(=O)NC2CCCCC2)CC1,-0.4,0%,0,-4,-99
CC1CCN(CCOc2ccc(OCc3ccccc3)cc2)CC1,-0.7,5%,nt,-17,-8
O=C(CSc1nc2scc(-c3ccccc3)c2c(=O)[nH]1)Nc1ccccc1,-1.1,nt,-5,nt,nt
O=C1NN=COc2ccccc21,1.2,7%,-5,-1,nt
COc1ccc(C(=O)CC(=O)C(=O)Nc2ccccc2C(F)(F)F)cc1,22,nt,43,nt,nt
Cn1cc(C(=O)N/N=C/c2cccs2)c2ccccc21,0.7,1%,1,3,-15
COc1ccc2c(c1)[n+](=O)c(C(C)=O)c(C)n2[O-],-2.8,-3%,3,5,-15
O=C1CN2Cc3c(ccc(Cl)c3Cl)N=C2N1,-1.4,-8%,-2,nt,nt
CC(C)CNC(=O)[C@@H]1CSC2c3ccccc3C(=O)N21 (stereo not given in full),-1.0,nt,-6,nt,nt
C#CCNC(=O)C1=C[C@H](c2ccc(C(F)(F)F)cc2)C[C@H](OCCCCO)O1,8.2,-5%,-1,0,nt
CC(C)(C)Cc1nnc(NC(=O)Cc2cccs2)s1,-1.5,-1%,7,9,nt
C=CCn1cccc(C(=O)Nc2ccc(C)c(C)c2)c1=O,-1.7,nt,5,nt,nt
CCc1ccc(NC(=O)COc2coc(CN3CCN(c4ccccc4)CC3)cc2=O)cc1,-0.6,nt,3,nt,nt
COc1cccc(NC(=O)N2CCC(N3CCCCC3)CC2)c1,1.0,-1%,-17,0,-18
COCCN(CC(=O)Oc1ccccc1P(=O)(OC)OC)Cc1ccccc1,-3.4,nt,-3,nt,nt
O=C(N/N=C\c1cccs1)c1sccc1-n1cccc1,-1.2,6%,-2,-4,nt
Cc1cc(Br)c2c(c1)/C(=C/C(=O)c1cccs1)C(=O)N2,78*,80%,95,-10,nt
COc1ccc(NC(=O)C(Cc2ccccc2)n2cccc2)c(OC)c1 (stereo not given),5.1,0%,nt,nt,nt
CC1(C)C2CC=C(/C=N/NC(=O)c3ccccc3O)C1C2 (stereo not given),-0.4,2%,nt,-1,-6
Cn1cc(CN2CCC(C(=O)N3CCCCC3)CC2)c(-c2ccccc2F)n1,1.8,-9%,-7,5,nt
CCOc1cc(C=O)ccc1OCc1cc(=O)n2cc(C)ccc2n1,1.7,-1%,-15,0,nt

# (more compounds)
SMILES,RecA splice inh,Mtb H37Rv,Mtb bLac sens,Arbovirus anti,YopH PTP inh
CCc1ccc(NC(=O)C2CCN(S(=O)(=O)c3ccc4[nH]c(=O)ccc4c3)CC2)cc1,1.2,nt,?,nt,nt
Cc1ccc(CCNC(=O)C2CCN(S(=O)(=O)c3cccc4cccnc34)CC2)cc1,-3.4,nt,5,nt,nt
CCOC(=O)C1CN(S(=O)(=O)c2ccc(Cl)cc2)c2cc(S(=O)(=O)CC)ccc2O1 (stereo not given),1.2,-5%,1,4,nt
Cc1ccc(NC(=O)c2oc3c(c2C)C(=O)CC(C)(C)C3)cc1,-0.7,-10%,6,-1,-9
NC(=O)CNC(=O)[C@@H]1CC2(CC(c3ccccc3)=NO2)CN1C(=O)c1ccc(Br)cc1 (stereo not given in full),-3.7,-17%,-6,6,-10
Cc1ccc(N=Cc2c(O)ccc3ccccc23)cc1F,-1.2,8%,nt,12,-28
Cc1nnc(SCc2ccc([N+](=O)[O-])cc2)[nH]c1=O,-5.0,-3%,-3,10,nt
Cc1cc(C)c2nc(N(CCCN(C)C)C(=O)c3ccc4c(c3)OCCO4)sc2c1,3.4,nt,55,nt,nt
NNC(=O)c1oc2nc(-c3ccco3)cc(-c3ccco3)c2c1N,-157,10%,nt,nt,nt
CCOC(=O)c1cc(NC(=O)c2ccc(OC)cc2)c(=O)oc1-c1ccccc1,-2.7,3%,5,2,-49
Cc1ccc(S(=O)(=O)N2CCC(C(=O)OCC(=O)N(Cc3ccccc3)C(C)(C)C)CC2)cc1C,3.0,nt,-14,nt,nt
CN(CC(=O)Nc1ccc(Cl)c(Cl)c1)C(=O)/C=C/c1ccc(F)cc1,-3.0,-6%,-6,-3,-7
COc1ccc(C(=O)Nc2c(Cl)cc(Cl)cc2C(=O)N2CCOCC2)cc1,-0.7,3%,2,2,nt
O=S(=O)(Nc1ncnc2scc(-c3ccc(F)cc3)c12)c1cc(F)ccc1F,-1.3,9%,1,nt,nt
CCOC(=O)c1ccc(NC(=O)CSc2nc3ncccc3[nH]2)cc1,0.8,?,88,6,-27
COc1ccc(S(=O)(=O)NCc2ccccn2)cc1Cl,0.5,-5%,-1,20,-5
CC(=O)O[C@@]12CO[C@@H]1C[C@H](OC1OCC(O)C(O)C1O)[C@@]1(C)C(=O)[C@H](O)C3=C(C)[C@@H](OC(=O)[C@H](O)[C@@H](NC(=O)c4ccccc4)c4ccccc4)C[C@@](O)([C@@H](OC(=O)c4ccccc4)C12)C3(C)C (stereo not given in full),4.4,nt,-1,nt,nt
O=C(COC(=O)/C=C/c1cn(-c2ccccc2)nc1-c1ccc2c(c1)OCCO2)NC1CCS(=O)(=O)C1 (stereo not given),-0.8,4%,-4,nt,nt
COc1cccc(C(=O)Nc2ccc(N(C)C)cc2)c1OC,-3.4,-5%,-8,-10,8

# Whole records, quoted from the list:
# CCOC(=O)c1ccc(NC(=O)CSc2nc3ncccc3[nH]2)cc1 is listed with RecA splice inh = 0.8; Mtb H37Rv = ?; Mtb bLac sens = 88; Arbovirus anti = 6; YopH PTP inh = -27
# CCc1ccc(NC(=O)C2CCN(S(=O)(=O)c3ccc4[nH]c(=O)ccc4c3)CC2)cc1 is listed with RecA splice inh = 1.2; Mtb H37Rv = nt; Mtb bLac sens = ?; Arbovirus anti = nt; YopH PTP inh = nt
# Cc1cc(C)c2nc(N(CCCN(C)C)C(=O)c3ccc4c(c3)OCCO4)sc2c1 is listed with RecA splice inh = 3.4; Mtb H37Rv = nt; Mtb bLac sens = 55; Arbovirus anti = nt; YopH PTP inh = nt

# Only part of the results is shown. The share of hits here may be higher or lower than overall.
